# Assay outcomes: PubChem BioAssay, Broad Institute
# Tgondii IFNg = T. gondii growth inhibition with IFN-gamma, primary screen, cell-based | Toxoplasma gondii growth in IFN-gamma-treated host cells; stronger effect = lower value; reference of the scale not given here | activity change, negative = inhibition, %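 (about 20 µM by stock and volumes)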 | 69,000 tested, 3.8% active;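 active means below -70%; inconclusive means fit judged invalid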;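 further: host cells are HeLa cells infected with Toxoplasma gondii; parasite growth read as luciferase light; one replicate is shown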
# Active calls of the source: *; i = inactive; ? = inconclusive; & = joins results of further samples; ! = not confirmed by another sample.
structure	Tgondii IFNg
C=CCO[C@@H]1CCN(Cc2nccn2C)[C@H]1Cc1cccnc1	-30
Cc1cc2cc(NC(=O)C3CC(=O)N(c4ccccc4C)C3)cc(Cl)c2o1 (stereo unspecified)	0
Cc1nc(CCNC(=O)C2CCN(S(=O)(=O)c3ccc(F)c(Cl)c3)CC2)cs1	16
CC(=O)N1CCC2(CC1)Nc1ccccc1NC2=O	46
Cc1ccc(C(=O)N2CCC(C3(C)NC(=O)N(Cc4ccsc4)C3=O)CC2)cc1C (stereo unspecified)	4
CCCCNc1ncc(-c2ccc(CN3CCOCC3)cn2)c(NC2CCC(O)CC2)n1 (stereo unspecified)	?
CC(C)(O)C#Cc1cccc(-c2nc(C(=O)N[C@@H]3CCN(Cc4ccccc4)C3)cc3c2[C@@H](CCO)N(S(=O)C(C)(C)C)C3)c1 (stereo partly specified)	1
Cc1nonc1NC(=O)CN1CCC(C2CC=CCN(Cc3ccc(F)cc3)C2=O)CC1 (stereo unspecified)	-3
CCCCC(=O)Nc1ccc(NC(=O)CS(C)(=O)=O)cc1C	7
CC(=O)Nc1ccc(NC(=O)Cn2c(=O)ccc3cc(S(=O)(=O)N4CCC(C)CC4)ccc32)cc1	63
Cc1cc(C)cc(N2CCN(Cc3nc[nH]c3C)CC2=O)c1	-1
Cc1ccc2c(CN3CCN(CC(=O)Nn4c(C)nc5sc(C)cc5c4=O)CC3)cc(=O)oc2c1	0
CCc1ccc(NC(=O)CN2C(=O)CCc3cc(Br)ccc32)cc1	122
O=C(NC1CC1)c1nc(C(=O)N2CCN(c3ccccc3F)CC2)cs1	-1
CCS(=O)(=O)N1CC[C@@H]2C(=O)N(c3ccsc3)CCO[C@@H]2C1	-14
C[C@@H]1CN(Cc2ccc3c(c2)CN(Cc2nc(-c4ccccc4)cs2)CCO3)C[C@H](C)O1	-18
CNC(=O)c1cc(=O)n(CC(=O)Nc2cccc(C#N)c2)c2ccccc12	-4
O=C(c1cc2ccccc2[nH]1)N1CCC2(CC1)Nc1ccccc1-n1cccc12	-48
O=C(CCc1nc2ccccc2[nH]1)NCC1(O)CCNC1 (stereo unspecified)	4
O=C1c2ccccc2S(=O)(=O)N1Cc1ccc2nonc2c1	-13
Cc1nc(-c2cccc(F)c2)sc1CCNC(=O)C(=O)Nc1ccc(Cl)cc1	17
CC(C)Oc1ccc(NC(=O)c2cc(-c3cnc(-c4cccnc4)nc3)cn2C)cc1	-17
CN(Cc1n[nH]c2c1CCCCC2)C(=O)CC1COCCN1 (stereo unspecified)	2
Cc1c(CN2CCCC(O)(CO)CC2)[nH]c2ccc(F)cc12 (stereo unspecified)	1
Cc1cnccc1N1CCCN(C(=O)CCc2n[nH]c3c2CCCC3)CC1	-4
CC(=O)N1CCC2(CC1)OC(=O)C(C)=C2C(=O)NCCN1CCCCC1C (stereo unspecified)	65
O=c1n(Cn2nnc3ccccc32)nc(C(F)(F)F)c2cccn12	70
COc1ccccc1CC(C)NC(=O)c1cnc(N(C)C)nc1 (stereo unspecified)	23
Cc1cc(C)cc(C(=O)N(C)[C@H](Cc2ccc(-c3ccccc3)cc2)C(=O)N[C@@H](Cc2c[nH]c3ccccc23)C(=O)O)c1	-41
COc1ccc(NC(=O)C2=NOC3(CCCN(S(=O)(=O)c4ccccc4F)C3)C2)cc1 (stereo unspecified)	-30
CCC(=O)N1C[C@@H](O)COC[C@@H]2O[C@H](CC(=O)NCc3ccc(Oc4ccccc4)cc3)CC[C@H]21	-1
Cc1ccc(C)c(N2CCN(C(=O)c3csc(C(=O)NC4CC4)n3)CC2)c1	-3
O[C@H]1C[C@@H]2CN(Cc3cccc4c3oc3ccccc34)C[C@@H]2C[C@@H]1O	8
O=C(c1ccc(-c2ccc(-c3ccn[nH]3)cc2)o1)N1CCCC1	302
Cc1cc(NC(=O)Nc2ccc(-c3nc(-c4ccccc4)co3)cc2)ccc1Br	2
CC(C)C1=NOC(C(=O)N2CCCn3nc(C(=O)N4CCCC4)cc3C2)C1 (stereo unspecified)	4
c1cnc2c(-c3ccc4[nH]ncc4c3)cccc2c1	-2
Cc1oc(-c2cccc(Cl)c2)nc1CN1CCN(C(=O)NC2CCCC2)CC1	1
C=Cn1cc(CN2CCC(CNC(=O)NC(C)(C)C)CC2)cn1	0
Cc1ncnc2c1CCN(S(=O)(=O)c1cn(C)cn1)CC2	326
CCOc1ccc(Cl)cc1CN(C)C(=O)CC(=O)Nc1ccccc1C	19
C[C@@H]1CN([C@H](C)CO)S(=O)(=O)c2ccc(C#Cc3ccccc3F)cc2O[C@H]1CN(C)C(=O)Cc1cccnc1	?
C=CCN(Cc1ccccc1OC)C(=O)c1csc(C)n1	29
C=CCNc1ccccc1C(=O)NCCN1CCNC1=O	41
Cc1nc(CN2CCN(C(=O)c3cnn(Cc4ccccc4)c3)CC2)no1	18
Cn1cnc(S(=O)(=O)N2CCCC(c3cccc(C(=O)Nc4nccs4)n3)C2)c1 (stereo unspecified)	12
Cc1nonc1C(=O)NCC(c1ccco1)N1CCCC1 (stereo unspecified)	10
COc1ccc2c3c(n(C)c2c1)[C@H](CO)N(C)CC31CN(CC2CC2)C1	-42
C[N+](C)(C)CCOP(=O)([O-])OC[C@H](O)CO	16
O=C(O)CCCc1c[nH]c2ccccc12	12

# Following part
structure	Tgondii IFNg
Cc1cc(-c2nnc(SCC(=O)O)n2C(C)c2ccccc2)on1 (stereo unspecified)	4
CCc1nccn1CCC(=O)N1CCC2(CC1)C(=O)NCCN2C	-51
COC(=O)[C@H]1[C@H]2C[C@H]3c4[nH]c5ccccc5c4CCN3C[C@H]2CC[C@@H]1O	20
Cc1nc2sccn2c1C(=O)NCC1(c2ccc(F)cc2)CCOC1 (stereo unspecified)	-1
CC(=O)c1cc(C(=O)N(CCN(C)C)Cc2ccc(C)s2)c(=O)[nH]c1C	-4
Cc1cccc(-c2c3c(=O)n(C)c(=O)n(C)c3c3nnc4ccccc4n23)c1	10
CCCOC1CCCN(S(=O)(=O)NCc2ccccc2)C1 (stereo unspecified)	-5
Cc1cc(C)n(-c2ccc(Cl)c(C(=O)NCCc3nc4cc(C)c(C)cc4[nH]3)c2)n1	-7
O=C(OCCCCCOc1ccc(Cl)cc1)c1ccco1	-23
Cc1nc(-c2cccc(F)c2)sc1CCNC(=O)C1CCCC1	90

# 6 neighbouring entries out of the list so far:
structure	Tgondii IFNg
CC(=O)c1cc(C(=O)N(CCN(C)C)Cc2ccc(C)s2)c(=O)[nH]c1C	-4
Cc1cccc(-c2c3c(=O)n(C)c(=O)n(C)c3c3nnc4ccccc4n23)c1	10
CCCOC1CCCN(S(=O)(=O)NCc2ccccc2)C1 (stereo unspecified)	-5
Cc1cc(C)n(-c2ccc(Cl)c(C(=O)NCCc3nc4cc(C)c(C)cc4[nH]3)c2)n1	-7
O=C(OCCCCCOc1ccc(Cl)cc1)c1ccco1	-23
Cc1nc(-c2cccc(F)c2)sc1CCNC(=O)C1CCCC1	90

# Going on with the list.
structure	Tgondii IFNg
CC(C)N1CC23C=CC(O2)C(C(=O)NC2(c4ccc(F)cc4)CCCC2)C3C1=O (stereo unspecified)	-8
Cc1c(NCc2cccnc2)cccc1C(=O)NCc1cc(C(C)C)no1	0
CCN1c2ccc(F)cc2C(=O)NC12CCN(C(=O)Cc1cccc(OC)c1)CC2	82
Cc1ccc(CN(Cc2nc[nH]c2C)C2CC2)s1	-20
N#Cc1cccc(-c2ccc(C3[C@@H]4CN(C(=O)Nc5ccc(C(F)(F)F)cc5)C[C@H]3N4)cc2)c1 (stereo partly specified)	-73*!
COC1C2CCC1N(C(=O)c1cn(C)c3ccccc13)CCO2 (stereo unspecified)	3
CCN1C(=O)CCc2cc(NS(=O)(=O)c3ccc(C)c(Cl)c3)ccc21	-83*
CO[C@H]1CN(C)C(=O)c2cc(NC(=O)Nc3cccc(Cl)c3)ccc2OC[C@@H](C)N(C(=O)Nc2c(C)noc2C)C[C@H]1C	95
Cc1ccccc1N1CCN(C2CCCN(c3ncnc4[nH]ccc34)C2)CC1 (stereo unspecified)	1
CN1CC2(CCN(C(=O)CCc3nc4cccnc4n3C)C2)OC1=O (stereo unspecified)	-52
Nc1ncnc2c1ncn2[C@@H]1O[C@H](COP(=O)(O)OP(=O)(O)OP(=O)(O)OP(=O)(O)OC[C@H]2O[C@@H](n3cnc4c(N)ncnc43)C(O)C2O)C(O)C1O (stereo partly specified)	-2
COc1cc([C@@H]2[C@H]3CO[C@@]4(O)C(=O)[C@@H]2C=C([C@H]2Oc5cc(O)cc(O)c5C(=O)[C@@H]2O)[C@@H]34)ccc1O	4
CS(=O)(=O)N1CC(C(=O)Nc2nc(-c3ccccn3)cs2)Oc2ccccc21 (stereo unspecified)	-101*
CS(=O)(=O)N(Cc1nc(-c2cccs2)no1)Cc1ccccc1F	1
CCN(CC)S(=O)(=O)c1ccc(NC(=O)c2cc3cccc(OC)c3oc2=O)cc1	-49
O=C(Cn1c(=O)cc(C(=O)N2CCc3ccccc3C2)c2ccccc21)Nc1cccc(Cl)c1	4
COc1ccccc1-n1nnnc1SCC(=O)Nc1c(C)ccc2nsnc12	18
COC(=O)[C@@H]1C[C@@H](N(C)C)CN1C(=O)c1cccnc1N1CCOCC1	11
O=C(O)/C=C1\CCCc2ccccc2C1O (stereo unspecified)	5&9
CC(C)(C)c1ccc2oc(CNC(=O)c3cccnc3)nc2c1	5

# Some of the entries so far, with each value named:
Compound: C=CCO[C@@H]1CCN(Cc2nccn2C)[C@H]1Cc1cccnc1
  Tgondii IFNg = -30
Compound: Cc1cc2cc(NC(=O)C3CC(=O)N(c4ccccc4C)C3)cc(Cl)c2o1 (stereo unspecified)
  Tgondii IFNg = 0
Compound: Cc1nc(CCNC(=O)C2CCN(S(=O)(=O)c3ccc(F)c(Cl)c3)CC2)cs1
  Tgondii IFNg = 16
Compound: CC(=O)N1CCC2(CC1)Nc1ccccc1NC2=O
  Tgondii IFNg = 46

# (continued)
structure	Tgondii IFNg
CCCNC(=O)N1CC2(CCN(Cc3cccc(OC)c3)CC2)c2c(n(C)c3cc(OC)ccc23)[C@@H]1CO	7
CN(C)CC(=O)N1CCOCC1c1nccc(N2CCOCC2)n1 (stereo unspecified)	3
O=C(Nc1ccncc1)C12CC3CC(CC(C3)C1)C2	-47
O=c1[nH]c(CN2CCN(Cc3ccccc3)CC2)nc2ccccc12	13
CC(C)CN1C(=O)N(C)C2(CCN(Cc3cccn3-c3cccnc3)CC2)C1=O	4
CCOc1cc(CCC(=O)Nc2n[nH]c(CC)n2)on1	39
S=C1NC2(CCCCC2)C2CCCCC2O1 (stereo unspecified)	0
Cc1nccn1CCN(C)C(=O)c1ccccc1C1CCNC1 (stereo unspecified)	11
c1ccc(CNc2nc(NCc3ccccc3)c3ccccc3n2)cc1	-108*
CSc1nnc(SCc2csc(-c3ccc(C(F)(F)F)cc3)n2)s1	15
C#CCOc1ccc2c(C)cc(=O)oc2c1	12
O=C(Nc1ccc(F)cc1)N1[C@@H](CO)[C@@H]2c3ccccc3NC[C@@H]21	9
O=C(C1CCCCC1)N1CC2(C1)[C@@H](c1ccccc1)[C@H](CO)N2C(=O)c1cccnc1	-45
CCCc1ncncc1C(=O)N1CCCC2(CC1)CN(C)C(=O)O2 (stereo unspecified)	-32
COc1ccc(CCNC(=O)c2cnn3ccn(C)c23)cc1OC	-19
CCc1cc(NCc2nc3ccccc3c(=O)[nH]2)nc(N2CCOCC2)n1	-8
COc1cc(NC(=O)N2CCC3(CC2)Nc2cc(C)ccc2-n2cccc23)cc(OC)c1OC	i
Cc1ccc(CN(C)C(C)c2nc(C)sc2C)o1 (stereo unspecified)	-2
C/C=C/c1ccc([C@H]2[C@@H](CO)N(C(C)=O)[C@@H]2CN(CC)C(=O)CN(C)C)cc1	23
Cc1noc(C)c1NC(=O)c1ccc(CN2CCCC2c2ccccn2)cc1 (stereo unspecified)	-30
CC(C)(C)S(=O)N1Cc2cc(C(=O)NCCCN3CCOCC3)nc(-c3cccc(-c4cccc(F)c4)c3)c2[C@H]1CCO (stereo partly specified)	-42
Cc1ccc2c(c1)NC1(CCN(C(=O)c3ccc(F)cc3)CC1)c1cccn1-2	8
CCOC(=O)c1nn(Cc2ccccc2)c2c1CN(Cc1cccn1-c1cccnc1)CC2	-47
CO[C@H]1CN(C)C(=O)c2cc(NS(=O)(=O)c3cccc(Cl)c3)ccc2OC[C@@H](C)NC[C@H]1C	-61
O=C(COc1ccc(CNC2(c3ccccc3F)CCCC2)cc1)N1CCOCC1	-26
Cc1ccc(-c2nnc(-c3nc(NCc4ccc(N(C)C)cc4)c4ccccc4n3)o2)cc1	404
C=CCn1nc(C(=O)O)c2c1CCC(NCc1c(F)cccc1Cl)C2 (stereo unspecified)	5
CCc1nc(OCC(=O)Nc2ccc(C(C)C)cc2)c2ccccc2n1	5
CNCCC=C1c2ccccc2CCc2ccccc21	-88*!
COc1ccc(-c2ccc(F)cc2OC)nn1	8
CCN1Cc2c(C(=O)Nc3ccc(C)cc3)ncn2-c2ccccc2S1(=O)=O	-28
CS(=O)(=O)NC1CCOC2(CCN(Cc3cc(F)ccc3F)CC2)C1 (stereo unspecified)	15
CCC1CN(Cc2ncccc2F)CCN1C(C)C (stereo unspecified)	2
CCn1c(SCC(=O)c2c(C)[nH]c3ccccc23)nnc1-c1cccs1	-8
O=C1NCN(c2nc(-c3ccccc3)c3cc(Cl)ccc3n2)c2ccccc21	-56

# An excerpt; the hit share may differ from the screen's.
